D2 agonist: agonists of human D2 dopamine receptor (beta-arrestin) | P14416 | DiscoveRx PathHunter D2 beta-arrestin, luminescence, 90 min; 100% = 57 uM dopamine signal | activation, % (test concentration not listed) | 360,000 compounds, 0.084% hits | AID 624465; in the data active = activation above about 40%; inconclusive = about 15% to 40%; inactive = below about 15%; note: compound concentration not given in the record; the text of the record calls up to 30% inactive
Target sequence (P14416 whole entry, looked up): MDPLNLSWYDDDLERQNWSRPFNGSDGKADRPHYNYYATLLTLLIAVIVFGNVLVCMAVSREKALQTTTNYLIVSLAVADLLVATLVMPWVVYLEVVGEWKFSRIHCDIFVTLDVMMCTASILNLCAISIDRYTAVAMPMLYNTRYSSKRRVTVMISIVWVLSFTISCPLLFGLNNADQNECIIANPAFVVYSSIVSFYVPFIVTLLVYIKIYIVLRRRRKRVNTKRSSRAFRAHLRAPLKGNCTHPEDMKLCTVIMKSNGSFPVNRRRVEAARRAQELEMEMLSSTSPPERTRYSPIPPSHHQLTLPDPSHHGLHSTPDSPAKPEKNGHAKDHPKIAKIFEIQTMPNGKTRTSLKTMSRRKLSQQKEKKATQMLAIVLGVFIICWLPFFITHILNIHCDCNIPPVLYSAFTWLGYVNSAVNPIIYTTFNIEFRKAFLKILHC
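DiscoveRx PathHunter D2 beta-arrestin cells (2,100/well) attached overnight, then compound-stimulated 90 min at 37 C in HBSS/10 mM HEPES/0.1% Tween-20 buffer; beta-galactosidase complementation read by luminescence after 1 h at ambient temperature. Dopamine 57 uM final (EC100) as control.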
TRPML1 blocker: inhibitors of human TRPML1 channel; TRPML1-inducible cells, Ca2+ dye fluorescence, FDSS; hits give low values; inhibition of EC80 agonist-evoked calcium signal; 390,000 compounds, 0.02% hits; activity change, negative = inhibition, % (test concentration not listed); in the data active means activity change below about -50%; inconclusive means about -30% to -50%; inactive means above about -30%;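 note: stimulus is agonist 54-4 at its EC80 concentration; % is set by controls: 0 for no effect and ±100 for the full control effect; compound concentration not given in the record; the text of the record puts the active cut at -80%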
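TRPML1-DL cells, Tet-induced overnight (~16 h, 37 °C) at 1,500 cells/well, were loaded with Ca8 no-wash dye plus quencher for 45-90 min at room temperature. Compounds were pinned during FDSS kinetic reading; agonist 54-4 at EC80 (4 uM final) then added.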
TRPML1 agonist: human mucolipin-1 channel agonism; AID 624414; activation, % (no concentration beside the values); Q9GZU1; 410,000 compounds, 0.12% hits; TRPML1-expressing cells, Ca2+ dye fluorescence, FDSS; host cell line not named in the record; reference of the full effect not given here; in the data active = activation above about 50%; inconclusive = about 30% to 50%; inactive = below about 30%; note: 0% is about no effect; the text of the record puts the active cut at 80%
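Cells: TRPML1-DL, 1X Tet inducer, ~16 h at 37 degrees C/5% CO2. Dye: ABD Ca8 no-wash + quencher, 45-90 min RT. Read: 10 s baseline, compound add, 110 s agonist phase; 54-4 EC80 (4uM final), 110 s antagonist phase.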
CtBP-E1A inh: inhibitors of CtBP/E1A interaction | 340,000 compounds, 0.49% hits | AlphaScreen GST-E1A/His-CtBP binding, 1536-well; hits give low values; control for the full effect not named in the record | activity change, % (test concentration not listed); in the data active means activity change below about -65%; inconclusive means about -30% to -65%; inactive means above about -30%; note: % is set by controls: 0 for no effect and ±100 for the full control effect
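In 5 uL wells, 23 nL compound meets equimolar GST-E1A and His-CtBP (5X stock 125 nM each) for 2 h, 37 °C. Beads (5X, 50 ug/mL) then 1 h, 37 °C, dark.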
PINK1 expr mod: PINK1 expression modulation; PINK1 immunofluorescence, high-content cytometry, 24 h; Potency, µM (doses to about 76.6 µM), inactives show at the top dose activation (PINK1 increase), actives largely listed as activators; 410,000 compounds, 0.2% hits; active = well fitted activation curve with a large enough effect; inconclusive = small, poorly fitted or top-dose-only effect; inactive = flat fitted curve, though single readings scatter; cell line not stated here;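 note: potency is the fitted concentration of half-maximal effect; % of control where 0% means no effect; nearly all actives have a fitted effect of over 65% in size; a mitochondrial uncoupler was the plate control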
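Cells are seeded, rested 12 hours, then given compound at five concentrations or DMSO for 24 hours. After fixation, blocking and antibody staining, PINK1 amount and mitochondrial localization are scored; CCCP serves as control.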
Six1-Eya2 inh: inhibitors of human Six1/Eya2 interaction; AlphaScreen GST-Six1/His-Eya2 binding, biochemical; hits give low values; control for the full effect not named in the record; Q15475+O00167; AID 651725; activity change, % (concentration not given with the values); 360,000 compounds, 0.56% hits; in the data active = activity change below about -65%; inconclusive = about -30% to -65%; inactive = above about -30%; note: % is set by controls: 0 for no effect and ±100 for the full control effect
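Homogeneous AlphaScreen proximity assay pairing GST-Six1 with His-tagged Eya2 (added as 5X mix: 250 nM and 500 nM) in 50 mM Tris pH 8.0, 300 mM NaCl, 1 mM TCEP. Glutathione donor and nickel acceptor beads; 1 h, 37 °C, dark.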
The depositor's hits bear a star; . = no result given; & = joins results of further samples; [ ] = another dose, or the depositor's remark.

SMILES	D2 agonist	TRPML1 blocker	TRPML1 agonist	CtBP-E1A inh	PINK1 expr mod	Six1-Eya2 inh
COc1cc2c(cc1OC)C(c1ccc3c(c1)OCO3)C1=C(CC(C)(C)CC1=O)N2 (stereo not drawn)	1.7	13	-0.3	10	6.0%	-7
Cc1ccc(Cl)cc1NC(=O)c1cccc(NC(=O)N2CCSc3ncccc32)c1	.	-19	0.1	.	-1.1%	.
Cc1noc(C)c1CSc1nnc(-c2ccncc2)n1-c1ccc(Cl)c(Cl)c1	-5.4	11	-0.1	6	-1.1%	-10
O=C(COC(=O)CCC(=O)c1ccc(Cl)cc1)NCc1ccco1	-1.1	-3	-0.7	-2	6.4%	-27
COc1ccc(NC(=O)c2ccc3[nH]c(C)cc(=O)c3c2)cc1	.	14	-0.5	.	3.1%	.
CCCc1cc(=O)[nH]c2nnc(SCC(=O)Nc3nccs3)n12	-0.8	6	-0.4	1	2.4%	-2
CCCCn1c(N)c(NCC(C)C)c(=O)[nH]c1=O	-1.2	-3	0.0	-3	-1.6%	2
O=C(CSCc1cccc(Cl)c1)OCc1nc2ccsc2c(=O)[nH]1	-2.7	-10	-0.4	-2	1.0%	-1
C=C(C)C(=O)Nc1cccc(C(C)=O)c1	-5.4	-3	-0.6	0	-0.1%	0
COCCN1C(=O)CCC1(C)c1nnnn1Cc1ccccc1 (stereo not drawn)	.	.	-0.4	5	0.0%	-6

An excerpt from above in order of their number in D2 agonist, lowest first.
compound | D2 agonist | TRPML1 blocker | CtBP-E1A inh | Six1-Eya2 inh
O=C(CSCc1cccc(Cl)c1)OCc1nc2ccsc2c(=O)[nH]1 | -2.7 | -10 | -2 | -1
CCCCn1c(N)c(NCC(C)C)c(=O)[nH]c1=O | -1.2 | -3 | -3 | 2
O=C(COC(=O)CCC(=O)c1ccc(Cl)cc1)NCc1ccco1 | -1.1 | -3 | -2 | -27

New compounds follow:
SMILES	D2 agonist	TRPML1 blocker	TRPML1 agonist	CtBP-E1A inh	PINK1 expr mod	Six1-Eya2 inh
Cc1ccc(C)c(N2CCN(C(=O)c3nn(C)c4c3CS(=O)(=O)c3ccccc3-4)CC2)c1	1.4	45&21	1.3&0.4	-14	-0.8%&2.7%	-8
COc1ccc(C2CC(=O)N(CC(=O)Nc3ccc(C(F)(F)F)cc3)c3ccccc3S2)cc1 (stereo not drawn)	.	10	1.5	.	0.0%	.
O=C(N/N=C/c1cn[nH]c1-c1ccc(F)cc1)c1ccncc1	-4.5	-12	-0.2	-6	-0.7%	-11
Cn1nnnc1-c1cc(Br)ccc1NC(=O)c1ccccc1	-1.6	5	-0.2	2	8.1%	1
CCOC(=O)c1sc2ccccc2c1S(=O)(=O)NCc1ccccc1OC	.	36	2.6	.	2.0%	.
COc1cc(NC(=S)N2CCC(C(N)=O)CC2)cc(OC)c1	-1.4	-2	-0.5	11	-1.5%	12
Cc1ccc(NC(=O)c2cc3c(-c4ccccc4)nn(-c4ccccc4)c3s2)cc1	.	-8	1.8	.	-1.1%	.
O=C(NCCc1ccccc1)C(=O)NCC1OCCN1S(=O)(=O)c1ccc(F)cc1 (stereo not drawn)	-8.2	-3	-0.4	-5	1.4%	-9
O/N=C/c1cccc[n+]1CCCCCC[n+]1ccccc1/C=N/O	0.1	-5	-0.7	2	0.5%	4
COc1ccc(C(=O)Oc2cc(C)[nH]c(=O)c2[N+](=O)[O-])cc1	-10.0	-1	-0.8	1	-0.1%	2

Structures above that contain a halogen, in the order listed:
SMILES	D2 agonist	TRPML1 blocker	TRPML1 agonist	CtBP-E1A inh	PINK1 expr mod	Six1-Eya2 inh
Cc1ccc(Cl)cc1NC(=O)c1cccc(NC(=O)N2CCSc3ncccc32)c1	.	-19	0.1	.	-1.1%	.
Cc1noc(C)c1CSc1nnc(-c2ccncc2)n1-c1ccc(Cl)c(Cl)c1	-5.4	11	-0.1	6	-1.1%	-10
O=C(COC(=O)CCC(=O)c1ccc(Cl)cc1)NCc1ccco1	-1.1	-3	-0.7	-2	6.4%	-27
O=C(CSCc1cccc(Cl)c1)OCc1nc2ccsc2c(=O)[nH]1	-2.7	-10	-0.4	-2	1.0%	-1
COc1ccc(C2CC(=O)N(CC(=O)Nc3ccc(C(F)(F)F)cc3)c3ccccc3S2)cc1 (stereo not drawn)	.	10	1.5	.	0.0%	.
O=C(N/N=C/c1cn[nH]c1-c1ccc(F)cc1)c1ccncc1	-4.5	-12	-0.2	-6	-0.7%	-11
Cn1nnnc1-c1cc(Br)ccc1NC(=O)c1ccccc1	-1.6	5	-0.2	2	8.1%	1
O=C(NCCc1ccccc1)C(=O)NCC1OCCN1S(=O)(=O)c1ccc(F)cc1 (stereo not drawn)	-8.2	-3	-0.4	-5	1.4%	-9

Later entries
SMILES	D2 agonist	TRPML1 blocker	TRPML1 agonist	CtBP-E1A inh	PINK1 expr mod	Six1-Eya2 inh
C=CCNC(=O)C1CC(=O)N(c2ccc(OCC(=O)Nc3ccc(CC)cc3)cc2)C1 (stereo not drawn)	-0.9	-7	-0.7	6	5.4%	4
CCOc1ccccc1NC(=O)C1CCC(=O)N1S(=O)(=O)c1ccc(C)cc1 (stereo not drawn)	-1.0	18	0.2	-1	1.2%	-1
COc1cccc(NC(=O)Cn2c(=O)n(Cc3ccco3)c(=O)c3cc(OC)c(OC)cc32)c1	.	-6	4.4	.	3.3%	.
Cn1ncc(Cl)c1C(=O)NC1C2CC3CC(C2)CC1C3 (stereo not drawn)	-3.7	27	-0.7	9	-0.5%	8
Cc1[nH]c2ccccc2c1-c1nc2ccccc2[nH]c1=O	-2.0	0	4.2	-1	2.7%	7
CC(=O)NC(c1cccc(F)c1)c1nc(-c2csc3ccccc23)cs1 (stereo not drawn)	-3.4	.	-0.1	-21	4.9%	26
COC(=O)c1ccc(NC(=O)Nc2ccc([N+](=O)[O-])cc2)cc1	1.8	.	.	.	35µM*	-1
CC1(C)Cc2ccccc2C(C(Cc2ccccc2)C(N)=O)=N1 (stereo not drawn)	-2.2	-3	-1.6	3	1.4%	-1
CC(C)(C)c1ccc(CSc2ccc(S(=O)(=O)N3CCOCC3)cn2)cc1	-3.5	-4	0.3	4	0.7%	3
CCC(=O)N1CCN(c2ccc(Cl)cc2NC(=O)c2ccc3c(c2)OCCO3)CC1	-1.7	5	0.0	-2	-1.8%	-1
NC(c1ccccc1)c1csc(NC(=O)Nc2cccc(C(F)(F)F)c2)n1 (stereo not drawn)	13	.	1.5	-14	-0.8%	-6
O=C(NCc1ccncc1)C(=O)NCC1OCCN1S(=O)(=O)c1ccc(Cl)cc1 (stereo not drawn)	-2.3	10	0.9	-13	-1.8%	6
Cc1ccc(C2=NOC(C)(c3nnc(-c4ccccc4)o3)C2)cc1 (stereo not drawn)	-0.5	-4	-1.2	7	-0.1%	1
C=CCNC(=S)Nc1cc(C)ccn1	-0.6	4	-0.3	-7	0.2%	6
CC1=C(C(=O)N(C(C)C)C(C)C)CC(CC(=O)NC2CCCC2)C(=O)N1CCC1=CCCCC1 (stereo not drawn)	-2.8	-18	-0.1	9	-0.5%	0
Cc1occc1-c1nnc(SCC(=O)Nc2nc(C(C)(C)C)cs2)o1	1.5	0	1.4	9	14µM*	0
O=C(NCCN1CCCC(O)C1)c1cc(COc2c(F)cccc2F)on1 (stereo not drawn)	14	-15	0.6	-19	-1.0%	7
CCOC(=O)C1=C(COC(=O)c2ccc(Cl)c(S(=O)(=O)N3CCOCC3)c2)NC(=O)NC1C (stereo not drawn)	3.3	-11	2.0	-18	-0.7%	-1
Cc1cccc(C)c1-n1c(SCC(=O)NCc2ccco2)nc2ccccc2c1=O	-1.5	14	0.0	3	-0.7%	-7
CC(C)OP(=O)(OC(C)C)C(NC(=O)c1ccccc1Br)C(N)=O (stereo not drawn)	-4.0	-12	-1.0	15	0.4%	4
COC(=O)c1nc2n(n1)C(c1ccc([N+](=O)[O-])cc1)C(C(=O)Nc1ccc(Cl)cc1)=C(C)N2 (stereo not drawn)	6.2	-5	0.3	0	9.0%	3
CCN(CC)CCC(c1ccc(N(C)C)cc1)c1c(OC)cc(OC)c2ccc(=O)oc12 (stereo not drawn)	1.1	3	-0.3	-20	-1.0%	-29
C/C=C/c1ccc(OCCCCn2cncn2)c(OC)c1	-1.1	-3	0.4	-3	0.5%	2
CCN1CCN(Cc2ccc(NC(=O)Nc3ccccc3OC)cc2)CC1	-1.6	-1	1.5	-16	0.3%	1
COc1ccc2c(c1)-c1ccccc1S(=O)(=O)N2C(C)=O	-2.8	-8	-0.1	0	13%[38.3 µM]	7
COc1cccc(NC(=O)C2CCN(Cc3cnn(-c4ccccc4)c3-n3cccc3)CC2)c1	-2.2	7	-0.5	-6	-1.6%	-15
CCN(C(=O)COC(=O)c1ccc2c(=O)n3c(nc2c1)CCC3)C1CCS(=O)(=O)C1 (stereo not drawn)	0.1	4	-0.5	-8	1.8%	-9
Cc1csc2nc(O)c(C(=O)NC3CCCCC3)c(=O)n12	4.8	-7	1.1	4	6.0%	-1
COc1ccccc1-n1c(SCC(N)=O)nc2c(c1=O)SCC2	-2.3	38	0.1	-1	1.8%	3
Cc1cc(C)cc(N(C(=O)c2cc3ccccc3oc2=O)C2C=CS(=O)(=O)C2)c1 (stereo not drawn)	-1.5	12	0.1	3	0.2%	10
O=C(Cn1cc(C(=O)C(F)(F)F)c2ccccc21)N1CCCCCC1	.	-5	0.1	.	-1.0%	.

Source: PubChem (National Center for Advancing Translational Sciences (NCATS))
